Autofluor counter = compound fluorescence in toxin protease inhibitor counterscreen | compound autofluorescence counterscreen, microsphere flow cytometry; stronger effect = higher value | fluorescence intensity (test concentration not listed) | 360,000 tested, 3.1% active;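 active = at least 3 SD above the mean of all compounds, about 16000 in these data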;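 note: 100 nL of 1 mM stock went into each well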
An asterisk follows results filed as active. Some of the compounds tested; rates above refer to the full screens.

SMILES	Autofluor counter
Cc1nn(CC(=O)NC2CCCCC2)c(C)c1[N+](=O)[O-]	2970
O=C(NNC(=O)c1cccs1)c1ccccn1	3683
C[C@H](CO)NC(=O)c1nc[nH]c1C(=O)N[C@@H](C)c1ccccc1	3705
O=C(OCc1cn([C@H]2C[C@H](c3ccccc3)N(C(=O)c3cccs3)C[C@@H]2O)nn1)c1ccccc1	2780
CC1(C(=O)NCCC#N)CCN1C(=O)Cc1ccc(-c2ccccc2)cc1 (stereo unspecified)	3988
CCCCn1nnnc1C(c1cc2ccccc2o1)N1CCN(C/C=C/c2ccccc2)CC1 (stereo unspecified)	5683
O=C(NCc1ccc(C(F)(F)F)cc1)c1ccc(-c2cccnc2)c2ccoc12	3342
O=C([C@H]1O[C@@H](n2ccc(=O)[nH]c2=O)[C@H](O)[C@@H]1O)N1CCC(F)(F)CC1	5517
CC1=CC2=C(C=O)C(=O)C(C)(O)C(O)C2=CO1 (stereo unspecified)	3703
COc1ccc(CNC(=O)c2sc(=O)n(Cc3ccccc3C)c2C)cc1	5306
O=C(Cn1cnc([N+](=O)[O-])c1)Nc1ccc(Cl)cc1Cl	2821
C[C@@H]1CN([C@H](C)CO)C(=O)c2cc(Br)cnc2O[C@@H]1CN(C)C(=O)c1ccccc1	3620
Cc1ccc(-c2ccc(CN3C(C)C(=O)N(Cc4cn(CCC5OCCCO5)nn4)CCS3(=O)=O)cc2)cc1 (stereo unspecified)	2786
CC(=O)Nc1ccc(NC(=O)C2Cc3c(-c4ccc(Cl)cc4)ccnc3O2)cc1 (stereo unspecified)	3539
Cc1cn([C@H]2C[C@H](O)[C@@H](CNCc3cccc(OC4CCCC4)c3)O2)c(=O)[nH]c1=O	3836

Next section; the last seven above are carried over.
SMILES	Autofluor counter
CC1=CC2=C(C=O)C(=O)C(C)(O)C(O)C2=CO1 (stereo unspecified)	3703
COc1ccc(CNC(=O)c2sc(=O)n(Cc3ccccc3C)c2C)cc1	5306
O=C(Cn1cnc([N+](=O)[O-])c1)Nc1ccc(Cl)cc1Cl	2821
C[C@@H]1CN([C@H](C)CO)C(=O)c2cc(Br)cnc2O[C@@H]1CN(C)C(=O)c1ccccc1	3620
Cc1ccc(-c2ccc(CN3C(C)C(=O)N(Cc4cn(CCC5OCCCO5)nn4)CCS3(=O)=O)cc2)cc1 (stereo unspecified)	2786
CC(=O)Nc1ccc(NC(=O)C2Cc3c(-c4ccc(Cl)cc4)ccnc3O2)cc1 (stereo unspecified)	3539
Cc1cn([C@H]2C[C@H](O)[C@@H](CNCc3cccc(OC4CCCC4)c3)O2)c(=O)[nH]c1=O	3836
CC1(C(=O)Nc2ccccc2)CCN1C(=O)C1(c2ccc(Cl)cc2)CC1 (stereo unspecified)	3898
Cc1ccc(S(=O)(=O)N2Cc3cc(-c4ccccc4)ccc3-n3nncc3C2)cc1	5616
C[C@@H]1ON(C)[C@H]2C[C@H]3c4[nH]c5ccccc5c4CCN3C[C@@H]12	3798
COc1ccc(-c2ccc(CN3C(C(C)C)C(=O)N(Cc4cn(CCC5OCCO5)nn4)CCS3(=O)=O)cc2)cc1 (stereo unspecified)	3023
CNC[C@H]1OCc2ccccc2-c2ccccc2C(=O)N([C@H](C)CO)C[C@H]1C	3645
CC(C)N(C)c1ncnc2c1ncn2[C@H]1CN(Cc2ccc3c(c2)OCO3)C[C@@H](CO)O1	3804
CC(=O)NC(c1cccc(F)c1)c1nc(-c2csc3ccccc23)cs1 (stereo unspecified)	3752
CSCCC(C(=O)Nc1c(C)cccc1C)N(Cc1ccccc1)Cc1ccccc1 (stereo unspecified)	4008
CCCCc1ccc(-c2nn[nH]n2)nc1	2932
CC(=O)Nc1cccc(-c2ccnc3c2CC(C)(C(=O)NCCC(F)(F)F)O3)c1 (stereo unspecified)	3544
COc1ccc(OC)c(NC(=O)Nc2nnc([C@H]3C[C@H](O)[C@@H](CO)O3)s2)c1	4016
COc1ccccc1-c1cc2nc(NCc3cccc(Cl)c3)ccn2n1	3664
CC(=O)NC(c1ccccc1)c1nc(-c2ccc3ccccc3c2)cs1 (stereo unspecified)	3761
CCOc1ccc(CCNC(=O)COC(=O)c2[nH]c(C)c(C(C)=O)c2C)cc1OCC	2887
CCOc1ccc(CCN2C(=S)N([C@@H](CC(C)C)CN3CCC[C@@H]3CN3C(=S)NC[C@@H]3CC(C)C)C[C@@H]2Cc2ccc(O)cc2)cc1	6204
O=C(NC(c1ccc(-c2ccccc2)cc1)c1cnccn1)C1CCN(CCCOc2ccccc2)CC1 (stereo unspecified)	4256
CC(C)C(N)c1csc(Nc2cc(Oc3ccccc3)ncn2)n1 (stereo unspecified)	3350
Cc1ccccc1-n1c(SCC(=O)NC2CC2)nc2ccccc2c1=O	4383
CC1(C)CC(=O)C=C(c2ccc(COC(=O)/C=C/c3ccccc3)cc2)C1=O	3453
CCc1nc2ccc(C(=O)NC3CCN(Cc4ccccc4)CC3)cn2c1N(C)Cc1ccc(N(C)C)cc1	2956
O=C(C1CCCCC1)N1CCC2CC1c1cc(-c3ccc4c(c3)OCO4)ccc12 (stereo unspecified)	5626
CN1C(=O)[C@H]2[C@@H](c3ccc(C(F)(F)F)cc3)N[C@]3(CCCN(Cc4ccco4)C3=O)[C@H]2C1=O	3827
COc1ccc(NC(=O)C2(C)CCN2Cc2cccc(OC)c2OC)cc1OC (stereo unspecified)	3042
Cc1ccc(C)c(NC(=O)CN(C)C(=O)c2ccc(COc3ccccc3)cc2)c1	3426
CC(C)C1C(=O)N(Cc2cn(CCC3OCCCO3)nn2)CCS(=O)(=O)N1Cc1ccc(-c2ccc(F)nc2)cc1 (stereo unspecified)	2892
CCNC(=O)C1(C)CCCN(C(=O)c2cc(-c3ccccc3)cs2)C1 (stereo unspecified)	3737
Cn1nccc1-c1coc2c(C(=O)N3CCOCC3)cccc12	2944
COC[C@H]1CCCN1c1ccc2c(c1)O[C@@H](COCc1ccccc1)CN([C@@H](C)c1ccccc1)S2(=O)=O	4991
COc1ncnc2c1ncn2CCCN[C@H](C)c1cccc2ccccc12	3915
O=C(Nc1cccc2cccnc12)c1ccc2sc([C@H]3C[C@H](O)[C@@H](CO)O3)nc2c1	3067

Molecules from the list above that contain an aryl methoxy group (6):
SMILES	Autofluor counter
COc1ccc(CNC(=O)c2sc(=O)n(Cc3ccccc3C)c2C)cc1	5306
COc1ccc(-c2ccc(CN3C(C(C)C)C(=O)N(Cc4cn(CCC5OCCO5)nn4)CCS3(=O)=O)cc2)cc1 (stereo unspecified)	3023
COc1ccc(OC)c(NC(=O)Nc2nnc([C@H]3C[C@H](O)[C@@H](CO)O3)s2)c1	4016
COc1ccccc1-c1cc2nc(NCc3cccc(Cl)c3)ccn2n1	3664
COc1ccc(NC(=O)C2(C)CCN2Cc2cccc(OC)c2OC)cc1OC (stereo unspecified)	3042
COc1ncnc2c1ncn2CCCN[C@H](C)c1cccc2ccccc12	3915

Other records follow:
SMILES	Autofluor counter
O=C(NC(Cc1c[nH]c2ccccc12)C(=O)O)OCC1c2ccccc2-c2ccccc21 (stereo unspecified)	5532
CC1(C(=O)NS(=O)(=O)c2ccccc2)CCN1C(=O)CC(c1ccccc1)c1ccccc1 (stereo unspecified)	3620
CN(Cc1ccccn1)C(=O)c1cc(COc2ccc(F)cc2Cl)on1	3568
C[C@@H]1CN([C@@H](C)CO)S(=O)(=O)c2ccc(Br)cc2O[C@@H]1CN(C)C(=O)c1ccc(F)cc1	3646
O=C1c2ccccc2-c2cc(Br)ccc2NC1O (stereo unspecified)	3457
c1cncc(C2SCCCS2)c1	3829
CC(C)(C)n1nnnc1C(c1ccccc1)N1CCN(c2ncc(C(F)(F)F)cc2Cl)CC1 (stereo unspecified)	4229
Cc1ccc(Cn2cc(CN3CC(N4CCSCC4)CS3(=O)=O)nn2)cc1 (stereo unspecified)	6023
COCCOC(=O)N1CCCCC1c1cc(C(=O)NCc2ccc(Cl)c(Cl)c2)no1 (stereo unspecified)	3990
C[C@H]1CN([C@@H](C)CO)S(=O)(=O)c2ccc(Br)cc2O[C@H]1CN(C)C(=O)CN(C)C	4648
O=C(COC(=O)/C=C/c1ccc(Cl)cc1)NCc1cccs1	3802
CN(C)C(=O)c1cccc(-c2cnc3c(NC=O)cc(-c4ccccc4Cl)cn23)c1	4235
CCOC(=O)[C@]12CCC=C1N(Cc1ccco1)C(=O)[C@H](CC(=O)N1CCC(c3ccccc3)CC1)C2	4221
CCOC(=O)C1(C)CCN1C(=O)c1ccccc1C(F)(F)F (stereo unspecified)	2875
O=C(NCc1ccco1)c1ccc2sc([C@@H]3O[C@H](CO)[C@@H](O)[C@H]3O)nc2c1	3834
CC1OC(CCc2cccc(Cl)c2)Cc2[nH]c(=S)[nH]c(=O)c21 (stereo unspecified)	4462
O=C(OCc1cn([C@@H]2CN(C(=O)c3cccs3)[C@@H](c3ccc(Cl)cc3)C[C@H]2O)nn1)c1ccccc1	3924
CC(=O)NC(C)(c1ccccc1)c1nc(/C=C/c2ccccc2)cs1 (stereo unspecified)	2949
CC1(C)CNC(=S)N1Cc1ccccc1	3943
CC1C(=O)N(Cc2cn(CCC3OCCO3)nn2)CCS(=O)(=O)N1Cc1ccc(-c2ccncc2)cc1 (stereo unspecified)	3548
CCC(C)[C@H]1CNC(=O)C(=O)N1CCCCC1CCCCC1 (stereo partly specified)	4279
CC(C)CC1C(=O)N(Cc2cn(CCC3OCCO3)nn2)CCS(=O)(=O)N1Cc1ccc(-c2ccccc2)cc1 (stereo unspecified)	2912
CCOC1=C2CN(S(=O)(=O)c3ccc(C)cc3)[C@H](c3cccs3)C[C@H]2[C@H]2C(=O)N(c3ccccc3)C(=O)[C@H]2C1	6235
CC(C)(C)Cc1c(-c2ccco2)nc2ccc(Cl)cn12	5929
C[C@@H]1CN([C@@H](C)CO)C(=O)CCCn2nncc2CO[C@H]1CN(C)Cc1cccnc1	3578
Cc1cccc(C)c1-n1nnnc1C(c1ccnc2ccccc12)N1CCN(c2ccccc2F)CC1 (stereo unspecified)	5897
Cc1ncoc1C(=O)NCC1=C(c2ccc(S(C)(=O)=O)cc2)C[C@@H]2CC[C@H]1N2Cc1ccco1	3814
C[C@]12CC[C@H](O)CC1=CCC1C2CC[C@@]2(C)C1CC[C@@H]2NCc1ccccc1 (stereo partly specified)	3076
Cn1cccc1CN1CCC[C@]2(N[C@H](c3ccccc3)[C@@H]3C(=O)N(Cc4ccccc4)C(=O)[C@@H]32)C1=O	2935
Cc1ccc(OC(=O)N(C)C[C@H]2OCc3cnnn3CCCC(=O)N([C@H](C)CO)C[C@@H]2C)cc1	3548
CC(=O)c1ccc(NS(=O)(=O)c2cccc3cccnc23)cc1	4359
CCc1nc2ccc(C(=O)NCCc3c[nH]c4ccccc34)cn2c1N(C)Cc1ccc(N(C)C)cc1	3754
C[C@@H]1CN([C@H](C)CO)C(=O)CCCn2nncc2CO[C@H]1CN(C)CC1CC1	6977
CC1(C(=O)NS(=O)(=O)c2cccc(C#N)c2)CCN1C(=O)c1ccco1 (stereo unspecified)	3508
CC(C)Oc1cccc(NC(=O)C2(C)CCCN(C)C2)c1 (stereo unspecified)	4073
O=C(O)c1ccc(CN2C[C@@H](CO)O[C@@H](n3cnc4c(NCc5ccc(F)cc5)ncnc43)C2)cc1	3495
COc1cccc(-c2cc(N3CCN(C(=O)c4ccoc4)CC3)n3nc(-c4cccc(Cl)c4)cc3n2)c1	3846
Cn1c2c(c(=O)n(C)c1=O)CS(=O)c1ccccc1N2 (stereo unspecified)	6222
CCN(CC)C(=O)C1=C(C)N(Cc2ccc(C(C)(C)C)cc2)C(=O)C(CC(=O)NC2CCCCC2)C1 (stereo unspecified)	3813
COC(=O)[C@@]1(Cc2ccc(F)cc2)[C@H]2c3cc(C(=O)N(C)C)n(Cc4ccc(C)o4)c3C[C@H]2CN1C(=O)c1ccccc1	6195
COC(=O)[C@H]1C[C@@]2(O)CN(S(=O)(=O)c3ccc(C)cc3)C[C@@]2(OC(=O)NC2CC2)C[C@H]1C(=O)OC	3416
COc1ccccc1CNC(=O)Nc1nc(C(N)Cc2ccc(Cl)cc2)cs1 (stereo unspecified)	3726
CC1(C(=O)Nc2ccc3c(c2)OCO3)CCN1C(=O)C1(c2ccc(Cl)cc2)CC1 (stereo unspecified)	3896
COc1ccc(NC(=O)c2cc(-c3cc(Cl)ccc3C)n[nH]2)cn1	3898
O=C(NCc1ccccc1)/C(=C\c1cccc([N+](=O)[O-])c1)NC(=O)c1ccco1	3767
COc1ccc(-c2csc(C(O)c3ccc(OC)cc3)n2)cc1 (stereo unspecified)	2947
Cc1ccc(Cc2c(-c3ccc(C#N)cc3)nc3c(C)cc(Br)cn23)cc1	5941
CCOc1ccc(Cl)cc1-c1cc(C(=O)Nc2ccc(OC)cc2OC)[nH]n1	3637
S=C1SCCCN1Cc1ccc(Cl)cc1	4054
Cc1ccc2c(CN3CCN(c4ccccc4F)CC3)cc(=O)oc2c1	6051
Cc1cc(O)ccc1-c1cc(C(=O)NCc2cc(C(F)(F)F)cc(C(F)(F)F)c2)[nH]n1	4029
O=C(C[C@H]1C(=O)N(c2ccc(Br)cc2)C[C@@H]1Cc1ccccc1)Nc1ccccc1	3498
O=C(CSC1=NCCS1)N1N=C(c2cccs2)CC1c1ccc(F)cc1 (stereo unspecified)	3428
Nc1nc(N)c(N=O)c(Nc2cccc(Cl)c2)n1	5524
CCc1ccc(C(O)c2ncc(-c3ccccc3Cl)[nH]2)cc1 (stereo unspecified)	3779
C[C@H](CO)N1C[C@H](C)[C@@H](CN(C)Cc2ccncc2)OCCCC[C@H](C)Oc2ccc(NC(=O)CCCN(C)C)cc2C1=O	4355
NC(=S)c1ccc(OCCCc2ccccc2)cc1	3471
CCOC(=O)[C@]12CCCC=C1N(Cc1cccc3ccccc13)C(=O)[C@H](CC(=O)NCCCOC)C2	5947
CCOC(=O)C1(C)NC(c2ccc(OC)c(OC)c2)C2C(=O)N(c3cccc(C(C)=O)c3)C(=O)C21 (stereo unspecified)	3067
CCCCN(C)c1c(C)nc2ccc(C(=O)NCCOc3ccc(OC)cc3)cn12	3972
